Rango-impB inh: qHTS Assay for Inhibitors of Rango (Ran-regulated importin-beta cargo) - Importin beta complex formation | Potency, µM (highest dose often 92.2 µM), without a hit: at the highest dose inhibition of complex formation | Rango CFP/YFP FRET sensor + importin beta, 45 min | Importin subunit beta-1 (Homo sapiens), Q14974 | AID 540263, 2011 | actives 0.031% (n = 340,000); active = rising FRET ratio curve, often small or poorly fitted; inconclusive = mostly compound fluorescence or quenching in the first reads; inactive = flat curves in all reads;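 further: potency means the concentration at half of the fitted maximal effect; 0% = DMSO wells and 100% = buffer wells lacking importin beta; nearly all actives have a fitted effect of over 15% in size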
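Inhibition scored from the CFP 486 nm/YFP 530 nm FRET ratio 45 min after adding 0.125 microM importin beta to 50 nM Rango biosensor preincubated 5 min with compound (room temperature, PBS with DTT, Tween-20, BSA). No-importin wells as positive control.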
GLA inh pH 4.5: qHTS Assay for Inhibitors of Human alpha-Galactosidase at pH 4.5. Alpha-galactosidase A (Homo sapiens), P06280. 230,000 tested, under 10 active. activity change, negative = inhibition, % at 105 µM. purified enzyme, 4-MU-alpha-Gal fluorescence, pH 4.5; inconclusive = small, poorly fitted or top-dose-only inhibition, or a rising curve; inactive = flat fitted curve, though single readings scatter; no compound was filed as active;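 further: 0% = full activity with enzyme and -100% = basal without enzyme; dose as in the result columns while the protocol names 77 µM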
Target sequence (P06280 whole entry, looked up): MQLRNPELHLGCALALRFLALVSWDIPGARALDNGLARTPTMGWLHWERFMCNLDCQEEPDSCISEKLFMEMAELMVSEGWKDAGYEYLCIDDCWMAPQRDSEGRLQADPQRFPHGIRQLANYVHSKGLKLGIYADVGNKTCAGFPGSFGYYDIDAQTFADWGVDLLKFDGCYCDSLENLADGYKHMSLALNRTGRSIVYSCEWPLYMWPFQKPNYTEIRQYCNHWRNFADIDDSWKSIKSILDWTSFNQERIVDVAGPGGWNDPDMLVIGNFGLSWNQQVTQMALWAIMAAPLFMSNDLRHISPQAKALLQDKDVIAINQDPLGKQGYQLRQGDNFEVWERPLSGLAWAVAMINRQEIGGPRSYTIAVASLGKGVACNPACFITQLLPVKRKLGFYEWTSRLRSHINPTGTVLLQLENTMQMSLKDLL
Rango release inh: qHTS Assay for Inhibitors of RanGTP induced Rango (Ran-regulated importin-beta cargo) - Importin beta complex dissociation; Biochemical FRET Rango-importin beta, RanGTP-induced dissociation; Snurportin-1 (Homo sapiens) + GTP-binding nuclear protein Ran (Homo sapiens) + Importin …; Potency, µM (titrated, usually from 46.1 µM), without a hit: at the highest dose activity change, negative = inhibition; actives 0.071% (n = 340,000); AID 540253, 2011; active means falling FRET ratio curve, often poorly fitted, with flat reads before Ran was added; inconclusive means other falling curves, or compound fluorescence or quenching; inactive means flat or rising ratio curve;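 further: potency means the concentration at half of the fitted maximal effect; % of control where 0% means no effect; nearly all actives have a fitted effect of over 45% in size; -100% = wells without RanGTP and RCC1; the record marks most hits as doubtful in a second field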
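Quantitative HTS using a FRET biosensor: 0.1 uM Rango, 0.25 uM importin beta, 0.6 uM Ran, 2 mM GTP, 0.2 uM RCC1 final, PBS with DTT, Tween-20 and BSA. Post-read taken 45 min after Ran addition.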
miR-21 reporter: qHTS Assay for Modulators of miRNAs and/orActivators of miR-21; HeLa miR-21 FLuc reporter, luciferase, 48 h; Potency, µM (series often up to 38.3 µM), for the others: at the top dose reporter change, positive = more light; 340,000 tested, under 10 active; AID 2288, 2010; active = well fitted rising curve with a large enough effect; inconclusive = small, poorly fitted or top-dose-only effect; inactive = no such curve, though single readings can be large or run the other way;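 further: % of control where 0% means no effect; miR-21 action dims this reporter so a rising signal means less miR-21 action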
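Luminescence from a firefly luciferase reporter carrying a miR-21 binding site downstream, stably expressed under a CMV promoter in HeLa cells that make miR-21 endogenously, reports miRNA modulation after 48 h compound exposure up to approximately 40uM final.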
Numbers without * were called inactive; & = joins results of further samples; [ ] = another dose, or the depositor's remark.

CSCCC1NC(=O)N(CC(=O)Nc2ccc3c(c2)OCCO3)C1=O (centres undefined) was read as Rango-impB inh -0.3% and Rango release inh -10.0%.
Screening O=C(CN(CC1CCCO1)C(=O)CCC(=O)Nc1ccccn1)NCC1CCCO1 (centres undefined) returned Rango-impB inh -0.8%, GLA inh pH 4.5 4.0, Rango release inh 21.7% and miR-21 reporter 0.0%.
O=C(N/N=C/C=C\c1ccccc1)c1cnccn1 was read as Rango-impB inh -0.5%, GLA inh pH 4.5 -4.2, Rango release inh -4.3% and miR-21 reporter -3.8%.
For C=C1C(=O)O[C@H]2C[C@]3(C)C([C@@H](OC(=O)/C(C)=C/C)[C@H]12)[C@](C)(O)CC[C@H]3O (some centres undefined) the results were Rango-impB inh -1.1%, Rango release inh 0.3% and miR-21 reporter 16.4%.
Cc1nnc(SCC2=C(C(=O)O)N3C(=O)C(NC(=O)c4cccc(F)c4F)C3SC2)s1 (centres undefined) was read as Rango-impB inh 2.8%, GLA inh pH 4.5 1.6[21.1 µM], Rango release inh 0.4% and miR-21 reporter -1.4%.
O=C(NC(CO)Cc1ccc([N+](=O)[O-])cc1)C(Cl)Cl (centres undefined) was read as Rango-impB inh -2.5%, Rango release inh 2.5% and miR-21 reporter 0.0%.
Screening COc1ccc(N2CC(C(=O)N[C@@H](C)C(=O)NCc3ccccc3OC)CC2=O)cc1 (some centres undefined) returned Rango-impB inh -4.3%, Rango release inh 0.1% and miR-21 reporter -3.9%.
For O=C(COc1cccc(NC(=O)c2cccc([N+](=O)[O-])c2)c1)c1ccc(F)cc1 the results were Rango-impB inh 11.7%, GLA inh pH 4.5 -4.8, Rango release inh 18.6% and miR-21 reporter 26.4%.
For COc1cccc(NC(=O)CN(C)C(=O)c2cccc(S(=O)(=O)Nc3ccc(C)cc3)c2)c1 the results were Rango-impB inh 3.5% and Rango release inh 6.1%.
O=C(C1CCN(S(=O)(=O)c2ccccc2)CC1)N1CCc2ccccc21 was read as Rango-impB inh 0.9%, Rango release inh -6.5% and miR-21 reporter 0.5%.
For CN1CCN(NC(=O)Nc2cccc(Cl)c2Cl)CC1 the results were Rango-impB inh 1.7%, GLA inh pH 4.5 -9.9, Rango release inh 2.3% and miR-21 reporter -2.2%.
Screening O=C(Nc1ccccc1)OCCOc1ccccc1 returned Rango-impB inh -0.4%, GLA inh pH 4.5 1.7, Rango release inh -11.1% and miR-21 reporter -63.7%.
Screening CCCCCn1c(=N)n(CC(O)COc2ccccc2OC)c2ccccc21 (centres undefined) returned Rango-impB inh -2.0%&0.2%, GLA inh pH 4.5 -0.1&9.8, Rango release inh 3.5%&1.8% and miR-21 reporter inconclusive.
Screening O=C(NC1CCCCCC1)C1CCC(CNS(=O)(=O)c2ccc(Br)s2)CC1 (centres undefined) returned Rango-impB inh -3.1%, GLA inh pH 4.5 6.4, Rango release inh 11.7% and miR-21 reporter -10.2%.
COc1cc(C=O)ccc1OCc1ccc(Cl)nc1 was read as Rango-impB inh -3.6%, GLA inh pH 4.5 -1.4, Rango release inh 5.7% and miR-21 reporter -47.3%.
Screening COC(=O)C1=C(C)NC(=O)/C1=C\c1cc(C)n(-c2c(C)cccc2C)c1C returned Rango-impB inh 0.3%, GLA inh pH 4.5 2.1, Rango release inh -25.5% and miR-21 reporter 1.9%.
Screening O=C(/C=C/c1cccs1)N1CCN(c2ccccc2F)CC1 returned Rango-impB inh 2.8%, GLA inh pH 4.5 -21.9, Rango release inh 14.2% and miR-21 reporter -32.7%.
`CCC1CCCCN1CCCNC(=O)C1CCCN(c2ncnc3c2nc2n3CCCCC2)C1` (centres undefined) gave Rango-impB inh -1.7%, Rango release inh 0.0% and miR-21 reporter -0.7%.
`CCCCCN(C(=O)NC(=O)Nc1ccc(C)cc1)S(=O)(=O)c1ccccc1` gave Rango-impB inh 0.1%, GLA inh pH 4.5 7.6, Rango release inh 29.7% and miR-21 reporter -29.3%.
For COCCCn1c(=O)c2sccc2n(Cc2ccc(C)cc2)c1=O the results were Rango-impB inh 8.4%, Rango release inh 16.8% and miR-21 reporter 0.4%.
Screening Cc1cc(OCC(=O)NC2CCN(Cc3ccccc3)CC2)c2c(C)c(C)c(=O)oc2c1 returned Rango-impB inh -0.3%, Rango release inh 2.0% and miR-21 reporter -2.9%.
`COC(=O)c1c(-c2ccccc2)csc1N1C(=O)Nc2ccccc2N1O` gave Rango-impB inh 3.9%, GLA inh pH 4.5 -4.1, Rango release inh 12.2% and miR-21 reporter -36.1%.
For COc1cc(OC)cc(C(=O)NC(=S)N2CCCCCC2)c1 the results were Rango-impB inh -0.1%, GLA inh pH 4.5 4.5, Rango release inh -0.2% and miR-21 reporter 1.3%.
For CC(NC(=O)c1ccc(NC2=NC3CS(=O)(=O)CC3S2)cc1)c1ccccc1 (centres undefined) the results were Rango-impB inh 0.3%, Rango release inh -11.4% and miR-21 reporter 1.8%.
For COc1cc2ccccc2cc1C(=O)Nc1ccccc1N1CCN(S(C)(=O)=O)CC1 the results were Rango-impB inh 0.0%, GLA inh pH 4.5 9.0, Rango release inh 1.2% and miR-21 reporter -0.6%.
`O=c1oc(-c2ccco2)nc2sc3c(c12)CCCCC3` gave Rango-impB inh -6.1%, GLA inh pH 4.5 4.0, Rango release inh 6.7% and miR-21 reporter -24.9%.
Screening O=C(NNC(=O)C1CCCO1)c1ccc(F)cc1 (centres undefined) returned Rango-impB inh -0.5%, GLA inh pH 4.5 2.6, Rango release inh -9.1% and miR-21 reporter -10.4%.
COC(=O)[C@H](CC(C)C)NC(=O)NCCCc1ccccc1 was read as Rango-impB inh -2.2%, GLA inh pH 4.5 -15.1, Rango release inh -0.1% and miR-21 reporter -8.4%.
`O=C1C2C3C=CC(O3)C2C(=O)N1N=C1CCCCC1` (centres undefined) gave Rango-impB inh 0.3% and Rango release inh -9.6%.
For CN(Cc1cccc(F)c1)C(=O)c1ccc(S(=O)(=O)C(F)F)cc1 the results were Rango-impB inh 3.3%, GLA inh pH 4.5 2.9, Rango release inh -8.2% and miR-21 reporter -1.9%.

Looked up by structure from the list above (4):
`O=C1C2C3C=CC(O3)C2C(=O)N1N=C1CCCCC1` (centres undefined) gave Rango-impB inh 0.3% and Rango release inh -9.6%.
For CC(NC(=O)c1ccc(NC2=NC3CS(=O)(=O)CC3S2)cc1)c1ccccc1 (centres undefined) the results were Rango-impB inh 0.3%, Rango release inh -11.4% and miR-21 reporter 1.8%.
For COc1cc2ccccc2cc1C(=O)Nc1ccccc1N1CCN(S(C)(=O)=O)CC1 the results were Rango-impB inh 0.0%, GLA inh pH 4.5 9.0, Rango release inh 1.2% and miR-21 reporter -0.6%.
`COC(=O)c1c(-c2ccccc2)csc1N1C(=O)Nc2ccccc2N1O` gave Rango-impB inh 3.9%, GLA inh pH 4.5 -4.1, Rango release inh 12.2% and miR-21 reporter -36.1%.

(listing goes on)
For CCOC(=O)Cc1csc(NC(=O)c2cc(C)on2)n1 the results were Rango-impB inh 1.6% and Rango release inh -3.5%.
Screening CN(C)CCCN(C(=O)c1ccc(C(=O)c2ccccc2)cc1)c1nc2ccc(F)cc2s1 returned Rango-impB inh 1.4%, Rango release inh 26.3% and miR-21 reporter -0.9%.
Screening Cc1nc(NC(=O)c2ccc(Cl)cc2)nc2cc3c(cc12)OCO3 returned Rango-impB inh 1.4%, GLA inh pH 4.5 -0.1, Rango release inh 9.4% and miR-21 reporter -11.0%.
CC(C)(C)OC(=O)NC(Cc1ccccc1)C(=O)N1CCCC1C(=O)O (centres undefined) was read as Rango-impB inh -1.6%, Rango release inh -4.4% and miR-21 reporter -0.7%.
Screening CN(C(=O)CSc1ncc(C(F)(F)F)cc1Cl)c1c(N)n(Cc2ccccc2)c(=O)[nH]c1=O returned Rango-impB inh 0.5%, GLA inh pH 4.5 10.0, Rango release inh -4.0% and miR-21 reporter 4.6%.
`O=C(CSCc1ccc(Cl)cc1)NCc1ccccn1` gave Rango-impB inh 0.7%, GLA inh pH 4.5 -13.8, Rango release inh 8.7% and miR-21 reporter -10.9%.
For N#CCNC(=O)C1CC(=O)N(CCc2ccc(F)cc2)C1 (centres undefined) the results were Rango-impB inh 5.0%, Rango release inh 11.6% and miR-21 reporter 1.2%.
Screening Cc1ccc(C(C(=O)NCc2ccco2)N(C(=O)Cn2nnc3ccccc32)c2ccccc2)o1 (centres undefined) returned Rango-impB inh 1.9%, GLA inh pH 4.5 -6.6, Rango release inh -6.0% and miR-21 reporter -3.1%.
Screening CCOC(=O)N1CCN(S(=O)(=O)c2ccc(C(=O)NNc3nc4c(C)cccc4s3)cc2)CC1 returned Rango-impB inh 3.5%, GLA inh pH 4.5 -7.4, Rango release inh -9.0% and miR-21 reporter 20.5%.
For CCOC(=O)CSc1nc2ccsc2c(=O)n1C1CCN(C(=O)OCC)CC1 the results were Rango-impB inh 5.4%, GLA inh pH 4.5 -4.5, Rango release inh -2.0% and miR-21 reporter 15.8%.
CCc1ccc[n+](-c2[nH]c(=O)sc2/C=N/N=C(\[O-])CCn2c3ccccc3c3ccccc32)c1 was read as Rango-impB inh inconclusive, GLA inh pH 4.5 -22.9, Rango release inh -11.7% and miR-21 reporter -4.2%.
`CCCCCCn1c(=O)c(-c2nc3ccccc3c(=O)[nH]2)c(O)c2ccccc21` gave GLA inh pH 4.5 0.8 and miR-21 reporter 0.1%.
For O=C(c1c[nH]c2ccccc12)N1CCN(Cc2ccccc2)CC1 the results were Rango-impB inh 2.1%, GLA inh pH 4.5 -6.1, Rango release inh 31.3% and miR-21 reporter -7.3%.
`CCN(C(=O)CSc1nnc(-c2cccc(F)c2)n1N)c1c(N)n(Cc2ccccc2)c(=O)[nH]c1=O` gave Rango-impB inh 0.4% and Rango release inh 17.1%.
For Cc1ccc(S(=O)(=O)/C(C#N)=C/c2c(N3CCN(C)CC3)nc3c(C)cccn3c2=O)cc1 the results were Rango-impB inh inconclusive, GLA inh pH 4.5 6.1, Rango release inh inconclusive and miR-21 reporter -7.4%.
COc1ccc(C(=O)OCCN2CCN(C3=NS(=O)(=O)c4ccccc43)CC2)cc1OC was read as Rango-impB inh -1.3%, Rango release inh -10.3% and miR-21 reporter -5.9%.
Nc1cc(=O)[nH]c(SCc2nnc(-c3ccccc3)o2)n1 was read as Rango-impB inh 0.1%, GLA inh pH 4.5 3.3, Rango release inh 11.4% and miR-21 reporter -24.4%.
For CCN(CC)CCCNc1cc(C(F)(F)F)c(C#N)c2nc3ccccc3n12 the results were Rango-impB inh inconclusive, Rango release inh inconclusive and miR-21 reporter -13.9%.
Screening Cc1ccc(Nc2nc(CSc3nnc(-c4cccnc4)n3-c3ccccc3C)cs2)cc1 returned Rango-impB inh 3.0%, GLA inh pH 4.5 9.9, Rango release inh -4.6% and miR-21 reporter -0.2%.
For COc1ccc(O)c(C2=Nc3ccccc3N=C(c3ccccc3)C2)c1 the results were Rango-impB inh inconclusive, GLA inh pH 4.5 -0.3, Rango release inh inconclusive and miR-21 reporter -34.4%&-4.1%.
`Cc1ccc(F)cc1NC(=S)NCCc1ccccc1` gave Rango-impB inh -0.2%, GLA inh pH 4.5 -11.2, Rango release inh 1.2% and miR-21 reporter -4.0%.
`CCn1c(COc2ccc(=O)n(-c3ccccc3)n2)nnc1SCc1ccc(OC)cc1` gave Rango-impB inh -2.2%, GLA inh pH 4.5 3.1, Rango release inh -0.3% and miR-21 reporter 0.2%.
`Cn1ncc(Br)c1C(=O)Nc1ccc(Br)cn1` gave Rango-impB inh 1.8%, GLA inh pH 4.5 9.4, Rango release inh 0.4% and miR-21 reporter -4.7%.
Screening CN(C(=O)Cn1cc(C#N)c2ccccc21)c1ccccc1 returned Rango-impB inh 0.2%, GLA inh pH 4.5 -28.4, Rango release inh -4.3% and miR-21 reporter -2.4%.

Source: PubChem (National Center for Advancing Translational Sciences (NCATS))

Not all compounds are listed (hit frequency here may not be typical).
